HCMV UL50-53 inh – cytomegalovirus nuclear egress complex inhibition | HTRF UL50-UL53 interaction, normalized percent inhibition | inhibition, % (test concentration not listed) | hit rate 0.15% among 190,000 | AID 1918969;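 active means both replicates at 50% or more, plus weaker picks with an unusually low signal ratio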;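 further: stock transfer was 100 nL into about 20 µL; 0% = negative control wells and 100% = wells with untagged competitor protein; inactives centre near -12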
Sa growth 42C – blocks Staphylococcus aureus growth | hit rate 0.53% among 170,000 | S. aureus RN4220 growth, OD600, 20 h, 42 °C; hits give low values | relative growth, % (concentration not given with the values);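 active means growth at 42 °C up to 50% and 20 or more points under that at 30 °C, or under 10% at both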;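 further: 300 nL library stock went into each well; scaled to the means of positive and negative controls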
GIV Gai3 FP – inhibitors of GIV GBA-motif binding to rat Galpha-i3; AID 1224905; Galpha-i3/FITC-GIV peptide fluorescence polarization, 90 min; hits give low values; scaled: aluminum fluoride 0%, vehicle 100%; hit rate 0.42% among 210,000; P08753; percent of control (FP), % (no concentration beside the values);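 active means replicate mean at 85% of control or lower, very high polarization wells dropped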;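 further: wells of about 15 µL received 100 nL stock; the first replicate is given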
Target sequence (P08753 whole entry, looked up): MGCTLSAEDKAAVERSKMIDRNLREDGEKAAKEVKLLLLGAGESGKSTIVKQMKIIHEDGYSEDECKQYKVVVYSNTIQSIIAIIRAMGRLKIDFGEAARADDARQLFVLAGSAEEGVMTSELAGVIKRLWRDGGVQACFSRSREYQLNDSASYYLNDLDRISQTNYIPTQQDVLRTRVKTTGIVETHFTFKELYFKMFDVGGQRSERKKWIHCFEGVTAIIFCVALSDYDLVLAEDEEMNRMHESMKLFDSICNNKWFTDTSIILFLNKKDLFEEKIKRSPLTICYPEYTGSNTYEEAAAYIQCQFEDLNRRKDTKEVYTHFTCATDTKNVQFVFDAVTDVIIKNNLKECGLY
Sa growth 42C second temp – second read-out of Sa growth 42C, no call of its own (marks repeat the call); relative growth, %; measured here: growth at 30 °C;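 optical density after 20 h as mean of two plates; 100% = untreated growth and lower means inhibition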
Numbers without * were called inactive; · = no result given; & = joins results of further samples.

SMILES	HCMV UL50-53 inh	Sa growth 42C	Sa growth 42C second temp	GIV Gai3 FP
CC(C)N(C(=O)c1ccc2ccccc2c1)C(C)C	-15.4	100.6	97.7	103.2
CCN(CC)S(=O)(=O)c1ccc2nc(COC(=O)c3n[nH]c4ccccc34)[nH]c2c1	2.3	107.5	90.9	·
COc1ccc(CCNC(N)=O)cc1OC	-31.7	89.0	83.5	106.7
COc1cc(NC(=O)CSc2nc3nc(C)c(Cc4ccccc4Cl)c(C)n3n2)cc(OC)c1	·	112.9	87.5	98.2
CC(=O)N1CCN(S(=O)(=O)c2cccc(C(=O)NC(C)c3ccc(S(N)(=O)=O)cc3)c2)CC1 (stereo not given)	-13.7	94.2	90.2	·
Cc1ccc(C2CC(=O)NC(SCC(=O)OC(C)C)=C2C#N)cc1 (stereo not given)	·	85.0	67.3	107.3
O=C(O)c1ccc(-n2cccc2)cc1O	-2.6	100.7	69.5	·
O=C(c1ccco1)N1CCN(c2c(Cl)cncc2Cl)CC1	2.8	109.9	100.0	100.8
CC1=C(C(=O)OC(C)C)C(c2cn(-c3ccccc3)nc2-c2ccc(Cl)cc2)NC(=O)N1 (stereo not given)	-9.8	·	·	120.2&108.1
C=CC1(C)OCO/C1=C\C[N+](C)(C)C (stereo not given)	-8.6	86.9	91.7	·
COc1ccc2[nH]cc(C(=O)CSc3nnc(-c4ccoc4)c(-c4ccoc4)n3)c2c1	-13.3	75.5	47.0	102.6
CCOc1cc(C(=O)Nc2ccc(-c3cn4cccnc4n3)cc2)cc(OCC)c1OCC	-50.0	100.4	80.3	97.5
Cc1cc(O)c(C(=O)Nc2ccc(Cl)c(Cl)c2)c(=O)n1C	-13.5	95.4	91.8	101.2
Cc1ccc(C)c(Nc2nc3c(S(=O)(=O)c4ccc(Br)cc4)nnn3c3ccsc23)c1	·	86.6	56.0	101.4
CC[C@H]1OC(=O)[C@H](C)[C@@H](O[C@H]2C[C@@](C)(OC)[C@@H](O)[C@H](C)O2)[C@H](C)[C@@H](O[C@@H]2O[C@H](C)C[C@H](N(C)C)[C@H]2O)C(C)(O)C[C@@H](C)CN(C)[C@H](C)[C@@H](O)[C@]1(C)O (stereo not given in full)	-6.7	-0.4*	-0.3*	103.5
CCN(C(=O)Cn1c(=O)n(CC)c(=O)c2ccccc21)c1ccccc1	2.0	88.7	88.2	101.9
O=C(c1oc(=O)c2ccccc2c1-c1ccccc1)N1CCCN(Cc2ccc(F)cc2)C1	·	106.9	78.2	99.8
O=C(COC(=O)C1CC(=O)N(CCc2ccccc2)C1)c1ccc[nH]1 (stereo not given)	4.9	91.9	95.2	·
CC(=O)N/C(=C/c1ccccc1Br)C(=O)NC1CCCCCC1	·	96.5	90.6	99.5
CCSc1nnc(C2CCCN(C(=O)C3CCC(OC)CC3)C2)n1C (stereo not given)	-8.0	103.1	77.2	102.7
O=c1onc(-c2cnccc2C(F)(F)F)n1-c1ccccc1Cl	3.1	99.9	95.3	106.2
Clc1ccc2oc(-c3ccccc3)cc(=NCc3ccco3)c2c1	·	71.1	29.4	101.3
CCN(Cc1ccccc1)Cc1c(O)ccc2c(=O)c(-c3ccccc3Cl)coc12	-9.9	102.2	91.3	98.2
CSc1ncc(C(=O)NC2CCCCC2)c(C)n1	·	81.4	77.3	110.2
CC(=O)OC1(c2ccccn2)COc2ccccc2O1 (stereo not given)	-8.7	102.9	87.7	99.0
NCc1cccc(C(F)(F)F)c1	-25.6	97.5	90.5	·
COc1ccccc1CNC(=O)Cn1cc2c(n1)-c1c(oc(C(=O)N3CCOCC3)c1C)CC2	·	96.3	89.5	102.0
COc1ccc(C)cc1NC(=O)C1COc2ccccc2C1 (stereo not given)	·	109.3	66.4	93.4
Cc1cc(Nc2ccc(Cl)cc2)n2cnnc2n1	-7.6	98.2	89.8	107.1
CC1CCCCN1C(=O)CSc1nnc(COc2ccc(Cl)cc2)o1 (stereo not given)	8.7&-4.1	87.3	36.0	101.8
Cc1ccc(N2C(=O)c3cccnc3C2Nc2ccc(S(=O)(=O)N3CCOCC3)cc2)cc1 (stereo not given)	-2.9	100.8	83.3	103.7
Cc1cc(C)n(CC(=O)N2CCc3ccccc32)c(=O)c1C#N	-16.3	96.7	83.9	107.1
COc1cc(NC(=O)c2nn(C)c3c2CSc2ccc(Cl)cc2-3)cc(OC)c1	-33.4	·	·	102.7
CS(=O)(=O)Nc1ccc(-c2csc(-c3ccccc3)n2)cc1	-24.4	87.0	95.8	·
CC(=O)OCN1C(=O)N(C)C2C1N(C)C(=O)N2COC(C)=O (stereo not given)	-29.7	83.2	76.8	102.6
CCC1CCCCN1C(=O)CSc1nc(C)cc(C)n1 (stereo not given)	-27.1	106.6	84.1	·
Cc1cc(=O)oc2cc(OC(=O)c3cncc(Br)c3)ccc12	-20.6	99.8	92.7	·
Cc1nnc(SC2CCOC2=O)n1C1CCCCC1 (stereo not given)	-15.8	70.2	95.9	·
NNC(=O)CC(=O)Nc1nc2ccccc2s1	-14.2	93.3	84.5	99.3
CCOc1ccc(N2CC(NC(=O)c3ccc(Cl)cc3)CC2=O)cc1 (stereo not given)	·	112.3	87.4	100.0
Cc1noc(C)c1C(=O)Nc1nnc(SCc2ccc(Cl)cc2)s1	1.7	4.9*	2.4*	·
O=c1/c(=C/c2cccc(OCc3cccc4ccccc34)c2)sc2nc3ccccc3n12	-19.6	·	·	106.2
Cc1ccc(-c2c(C(=O)N3CCN(c4cccc(C)c4C)CC3)oc(=O)c3ccccc23)cc1	-19.5	105.4	86.2	103.1
N#CCCn1c(=O)oc2cc(Br)ccc21	-5.7	100.9	87.5	·
Cc1ccc(-c2nnc3ccccc3c2C(=O)Nc2ccc(C)c(F)c2)cc1	·	80.8	89.7	102.0
Cc1ccc(-c2c(C(=O)Nc3ccccc3F)oc(=O)c3ccccc23)cc1	·	100.3	91.6	103.9
COc1cc(NS(=O)(=O)c2ccc(NC(=O)c3cccnc3)cc2)ncn1	-0.5	109.2	108.9	104.4
Cc1cc(=O)n2[nH]c(NCc3cc(F)cc(F)c3)nc2n1	-5.8	·	·	111.1
CCCOc1ccc(C(=O)N2CCCC2)cc1	-14.1	99.7	103.1	98.3
CCOc1ccc(CNS(=O)(=O)c2ccc(-c3coc(C)n3)cc2)cc1OC	·	110.1	80.6	102.6
COC(=O)c1cc2sccc2n1Cc1c(C)cc(C)cc1C	-16.2	111.8	88.5	106.0
CN(C1CCCCC1)S(=O)(=O)c1cc(Cl)ccc1Cl	-2.0	91.0	78.8	·
Cc1nc(-c2ccc(F)cc2)sc1CCNC(=O)C(=O)Nc1ccc2c(c1)OCO2	·	87.1	91.4	103.6
COc1cccc(NC(=O)c2ccnc(N3CCC(C(=O)O)CC3)c2)c1	·	84.3	82.0	99.6
O=C(OCc1cc(=O)n2nc(-c3cccs3)sc2n1)c1ccc(Cl)cc1	·	87.1	68.5	100.4
CC1CCN(C(=O)C2=NN(C3CCS(=O)(=O)C3)C(=O)CC2)CC1 (stereo not given)	-19.5	89.9	96.2	·
COc1ccccc1NC(=O)c1sc2ncn(Cc3ccccc3Cl)c(=O)c2c1C	·	117.0	99.5	111.5
CCCNC(=O)c1nnc(-c2oc3ccccc3c2C)o1	-16.7	·	·	104.9
CCOc1ccc2c(c1)[nH]c(=S)n2C	·	105.3	99.4	101.6
COc1nc2cc(C)ccc2cc1-c1noc(C)n1	-21.5	·	·	117.4
The list goes on.
SMILES	HCMV UL50-53 inh	Sa growth 42C	Sa growth 42C second temp	GIV Gai3 FP
COCc1cc(N2CCCCC2)nc(-c2csc(C)n2)n1	-0.3	169.4	83.2	97.3
C=CCNC(=S)N/N=C1\CCS(=O)(=O)c2ccccc21	-33.5	88.8	99.2	·
COC(=O)c1ccc(NC(=O)c2sc3nc(C)cc(=O)n3c2C(=O)Nc2ccc(C)cc2C)cc1	-0.1	·	·	104.9
CCCN(Cc1nnc(-c2ccccc2Cl)o1)C(=O)Cc1coc2cc(OC)ccc12	-29.6	94.8	72.8	·
CCc1nc(N)ncc1-c1nnnn1-c1ccc(C)cc1	-31.0	90.5	88.2	101.1
O=C(NCc1ccc2c(c1)OCO2)c1cnn(-c2cccc(F)c2)c1-n1cccc1	-3.8	96.7	93.5	101.6
Cc1ccccc1NS(=O)(=O)c1ccc(C(=O)NN2C(=O)NC3(CCCCC3)C2=O)cc1	-6.9	85.8	91.8	·
COCCNc1ccc(-c2nc(-c3ccncc3)no2)cc1[N+](=O)[O-]	-25.8	108.6	92.2	104.4
COc1ccccc1CNC(=O)c1cc2cc(C)ccc2n1C	-41.0	89.5	83.3	97.1
CCN=C(NCC)SC1CC(=O)N(CCc2ccccc2)C1=O (stereo not given)	-18.9	97.1	88.5	·
CC1=C(C(=O)OCC(C)C)C(c2cc3c(cc2Br)OCO3)NC(=O)N1 (stereo not given)	-15.5	·	·	100.0
CCc1ccccc1NC(=O)CC(NCc1ccccc1)C(=O)O (stereo not given)	-32.0	84.4	89.1	·
Cc1ccc(C(=O)N2C(=O)C(c3ccccc3)Oc3ccccc32)cc1 (stereo not given)	·	86.8	105.1	101.0
COc1ccc(/C=C2\SC(=Nc3cc(C)cc(C)c3)NC2=O)c(OC)c1	-23.3	·	·	101.4
CCCc1nc2c(sc3nc4c(cc32)COC(C)(C)C4)c(=O)n1N	7.7	95.6	97.7	102.1
CNC(=O)COc1ccc(Nc2nnc(-c3ccc(C)cc3)c3ccccc23)cc1	·	85.2	81.7	98.1
CCCCNC(=O)c1ccc(NC(C)=O)cc1	-2.6	97.5	93.2	·
NC(=O)c1ccccc1OCCCN1CCN(c2ccccc2)CC1	0.7	88.6	94.8	97.3
CN1CCN(C2(CNC(=O)c3ccc(C(C)(C)C)cc3)CCCCC2)CC1	-9.2	106.4	83.7	99.0
COC(=O)c1sc(-c2ccc(Cl)cc2)cc1NC(=O)c1cc(C)nn1C	-17.4	96.1	84.8	100.2
Cc1ccc(NC(=O)c2cc3ccccc3c([N+]#N)c2[O-])cc1	-27.7	90.5	71.0	106.6
O=C(/C=C/c1ccccc1)N1CCCCC1c1cccnc1 (stereo not given)	-7.9	105.8	98.0	·
Cc1ccccc1-c1nnc2s/c(=C\c3ccccc3)c(=O)n12	5.7	91.0	87.1	103.8
Oc1ccc(CCc2n[nH]c(=S)n2CCc2ccccc2)cc1	9.5	104.4	95.6	109.5
Oc1ccc2c(c1)[nH]c1ccccc12	-12.8	94.0	67.2	·
CCN1C(=O)C2(c3ccccc31)c1c(oc3ccccc3c1=O)C(=O)N2CCCOC (stereo not given)	-11.4	109.2	90.9	105.3
CCC(C(=O)NCCc1cc(OC)ccc1OC)n1nc(C)c2sc3ccccc3c2c1=O (stereo not given)	-12.5	83.5	85.7	103.7
Cc1ccc(-n2c3nc(=O)[nH]c(=O)c-3cc3c(Cl)cccc32)cc1	-187.2	108.6	86.5	108.5
CCCN(CCC)c1c(Cl)c(Cl)nc(C(=O)O)c1Cl	5.2	106.7	97.2	·
CCOc1ccccc1NC(=O)C1CCN(S(=O)(=O)c2cccc3nonc23)CC1	·	118.9	91.6	108.4
CCOC(=O)c1noc2nc(C)n(CC(=O)Nc3ccc(C)c(F)c3)c(=O)c12	-29.4	·	·	101.2
COc1ccccc1-c1nc(-c2cccc(Br)c2)no1	-20.4	106.3	95.9	101.5
COc1ccc(NC(=O)C2CCN(Cc3cnn(-c4ccccc4)c3-n3cccc3)CC2)cc1OC	-9.7	91.0	88.5	105.3
N/C(=N\O)C1(c2ccc(Cl)cc2Cl)CC1	-0.7	103.1	95.4	100.2
O=C(C1CCCCC1)N1CCN(c2nnc(-c3ccccc3)c3ccccc23)CC1	·	72.8	77.4	104.8
Cc1nn(-c2ccccc2)nc1CNS(C)(=O)=O	-22.0	96.4	87.2	107.6
